# High-throughput results from PubChem BioAssay.
# BJeLR viability: kills HRASV12-expressing BJeLR cells. BJeLR (HRASV12) viability, CellTiter-Glo ATP luminescence, 48 h; reference of the scale not given here. inhibition, % (test concentration not listed). actives 0.17% (n = 300,000). AID 1554;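 active means replicate mean above 50%; inconclusive means above 50% but judged a plate artefact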;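 further: 50 nL library stock added to about 25 µL; numbers are from one replicate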
# Sa ugtP lethal: kills S. aureus RN4220 lacking UgtP. growth inhibition, % (no concentration beside the values). AID 1259309. S. aureus RN4220 ugtP deletion, OD600 growth, 16 h; some inactives read as strong as hits. actives 0.54% (n = 330,000);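 active means z-score under -3 and OD600 up to 0.15 on both plates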;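 further: plate controls were untreated wells for no effect and antibiotic for full effect; wells of about 80 µL received 100 nL stock; the first replicate is given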
# Autofluor counter: compound fluorescence in toxin protease inhibitor counterscreen; compound autofluorescence counterscreen, microsphere flow cytometry; hits give high values; fluorescence intensity (test concentration not listed); actives 3.1% (n = 360,000); AID 624483;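 active means at least 3 SD above the mean of all compounds, about 16000 in these data; inconclusive means too few beads counted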;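 further: 100 nL of 1 mM stock went into each well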
# RN4220 kill: kills Staphylococcus aureus RN4220 | inhibition, % (no concentration beside the values) | S. aureus RN4220 growth, OD600, 16 h | actives 0.33% (n = 330,000);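 active means z-score of -3 or lower and OD600 up to 0.18 on both plates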;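 further: plate controls were untreated cells for no effect and reference antibiotic for full effect; stock transfer was 100 nL into about 80 µL; one replicate is shown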
# PrP 5UTR inh: suppresses PrP 5' UTR mRNA reporter expression | actives 0.35% (n = 340,000) | AID 488862 | inhibition, % (concentration not given with the values) | cell-based PrP 5' UTR mRNA reporter, plate reader;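 active means every replicate at 50% or more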;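 further: 0 = median of the neutral control wells; tested in H4 reporter cells; numbers are from one replicate; inactives centre near -14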
# Mtb hypoxia rep: Mtb hypoxia fluorescent reporter inhibition; M. tuberculosis hypoxia-regulated fluorescent reporter, fluorescence; fluorescence inhibition, % (no concentration beside the values); AID 1159583; actives 0.1% (n = 300,000);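 active means 35 to 45% if threefold the growth effect, above 45% if 1.5-fold the growth effect; inactive means the rest, general growth blockers included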;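 further: wells of about 50 µL received 100 nL stock; 0% = vehicle wells and 100% = reference inhibitor wells; whole bacteria with a GFP reporter of the hypoxia response; strong numbers were not always called active; many hits fall short of the cut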
# Mtb hypoxia rep growth: second read-out of Mtb hypoxia rep, no call of its own (marks repeat the call); growth inhibition, %; measured here: M. tuberculosis growth (absorbance);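 0% = vehicle and 100% = reference antibiotic; read after six days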
# The depositor's hits bear a star; ? = inconclusive; / = not tested or not shown.
nr	SMILES	BJeLR viability	Sa ugtP lethal	Autofluor counter	RN4220 kill	PrP 5UTR inh	Mtb hypoxia rep	Mtb hypoxia rep growth
1	COc1ccccc1C(=O)NC(=S)Nc1ccc(N2CCN(C(=O)c3ccco3)CC2)cc1	8	19	6478	5.1	-9	2	8
2	CCNc1nc(Oc2ccc(Cl)cc2Cl)cc(C(F)(F)F)n1	-5	17	5294	-8.4	-43	15	6
3	C=CCn1c(SCC(=O)Nc2ccc(F)cc2F)nc2c([nH]c3ccccc32)c1=O	3	2	?	4.0	-13	2	-11
4	COC(=O)C(NC(=O)c1ccccc1Cl)(Nc1ncc(S(=O)(=O)c2ccc([N+](=O)[O-])cc2)s1)C(F)(F)F (centres undefined)	-9	-8	8798	3.9	-19	4	14
5	COc1ccc(CNC(=O)CC(NC(N)=O)c2ccccc2Cl)cc1OC (centres undefined)	3	10	3486	-1.1	-15	-3	5
6	COc1cc2nc(CCc3ccccc3)oc(=O)c2cc1OC	-18	7	4335	1.0	-3	11	2
7	Cc1ccccc1C1=NC(c2ccc(F)cc2F)ON1 (centres undefined)	2	-1	2956	3.9	-52	15	16
8	CN(Cc1cccc(-n2cccn2)c1)C(=O)CCc1nnc(C2CCCCC2)o1	7	11	4130	-2.0	-15	4	5
9	C=CCNC(=O)COc1ccc(Br)cc1Cl	-1	5	20768*	9.0	-40	6	5
10	O=c1[nH]c(CCl)nc2cc(-c3ccc(F)cc3)sc12	7	/	4742	/	-81	/	/
11	O=C(NCc1cccnc1)c1ccc(CS(=O)(=O)c2ccc(Br)cc2)o1	5	-1	5412	4.3	-23	/	/
12	CCc1ccc(C2CC=C(C(=O)O)C(c3ccccc3F)N2S(=O)(=O)c2ccc(C)cc2)cc1 (centres undefined)	/	34	/	22	/	7	7
13	COc1ccc(-n2cnc3ccccc32)cc1	6	4	8031	15	-3	-4	6
14	O=C(NCc1ccccc1Br)c1ccncc1	-1	-1	6789	0.7	-7	-14	8
15	O=C(NNc1c2ccccc2nc2ccccc12)C12CC3CC(CC(C3)C1)C2	-15	0	3868	1.1	1	12	-1
16	COc1ccc2c(c1)C1C(CO2)C(c2ccccc2)[C@]2(C)C(=O)Nc3ccc(C)cc3C(=O)N12 (some centres undefined)	/	-14	/	2.3	/	7	9
17	O=C1C(NS(=O)(=O)c2cccs2)=C(N2CCN(c3cccc(C(F)(F)F)c3)CC2)C(=O)c2ccccc21	-2	32	2567	50	-16	2	2
18	CCS(=O)(=O)c1ccc2c(c1)N(S(=O)(=O)c1cccs1)CC(C(=O)O)O2 (centres undefined)	-10	3	5867	-1.9	-15	-8	-14
19	CCCCNC(=O)OCCSCCS(=O)(=O)c1ccc(Cl)cc1	-6	2	5721	3.4	13	-13	-9
20	Cc1cccc(OCCn2ccnc2)c1	-4	1	3698	0.8	-9	4	2
21	COc1cccc(C(=O)Nc2ccc(-c3nc4ccccc4o3)c(O)c2)c1	2	33	11352	-6.2	-55	1	-2
22	CCCCOc1ccc(C(=O)N/N=C/c2ccc(OCCN3CCCCC3)c(OC)c2)cc1	6	/	2473	/	-8	/	/
23	CCOC(=O)Cc1csc(NC(=O)c2cccc(Cl)c2)n1	2	10	4387	0.3	/	-22	-12
24	CCn1c(SCC(=O)Nc2ccc(Br)cc2)nc2sc3c(c2c1=O)CCN(C)C3	0	2	5893	-2.0	-1	1	9
25	CNC(=S)NN=Cc1c2ccccc2c(Cl)c2ccccc12	/	2	/	-0.5	/	-13	2
26	COC(=O)Nc1ccc(S(=O)(=O)N2CCC(C(=O)N3CCCC(C)C3)CC2)cc1 (centres undefined)	-7	/	4275	/	-48	/	/
27	CN(C(=O)c1cccc(NC(=O)Cc2ccc(NC(=O)C3CCCN(C(=O)C4CCC4)C3)cc2)c1)C1CCC1 (centres undefined)	/	-2	3883	2.6	-13	-4	2
28	O=C(c1cc2ccccc2oc1=O)N(Cc1ccco1)CC1CCCO1 (centres undefined)	10	5	5678	5.0	-22	0	2
29	CC(=O)Nc1ccc(NC(=O)c2ccc(CN3CCc4ccccc4C3)cc2)cc1	7	6	3061	8.8	-16	12	20
30	O=C(CSCc1ccc(Cl)cc1)NCC1CCCO1 (centres undefined)	6	3	4038	2.7	-12	2	8
31	CCOc1ccc(-n2c(C)c(C(C)=O)c3cc(OCC(N)=O)ccc32)cc1	2	3	4251	6.8	-17	-6	3
32	COc1cc(/C=N/NC(=O)c2cc(C)oc2C)ccc1O	8	/	5849	/	-8	/	/
33	COc1ccc(-n2nc3c(c2NC(=O)C2CC2)CS(=O)(=O)C3)cc1	7	-2	6024	-2.2	-14	8	9
34	Nc1ccc(-c2nnc(-c3ccc(-c4ccccc4)cc3)o2)cc1	-1	-9	4223	-3.1	-94	/	/
35	O=C(NC1CCCc2ccccc21)c1cc(Cl)ccn1 (centres undefined)	-4	4	3991	-0.8	-9	9	11
36	Cc1cc2ncc(C(=O)N=CN(C)C)cn2n1	-2	4	2038	3.3	-36	-1	4
37	COc1ccc(NC(=O)COC(=O)CCc2ccccc2)c(OC)c1	6	3	4371	2.3	2	-1	-5
38	Cc1ccc(CSc2ccc(-c3ccc4c(c3)OCO4)nn2)cc1	-9	10	2069	-0.7	-10	6	-22
39	C/C(=N/Nc1ccc(C(=O)c2c(C)cc3ccccn23)cc1[N+](=O)[O-])c1ccc(O)cc1	/	7	3008	-0.3	0	7	-4
40	COc1ccccc1OCC(=O)Nc1nc2c(s1)CCCC2	11	-2	4835	-4.4	-41	2	4
41	COc1cc(C(C2C(=O)CC(C)(C)CC2=O)C2C(=O)CC(C)(C)CC2=O)ccc1OC(C)=O	-11	5	4341	2.1	0	8	6
42	COc1ccccc1CNC(=O)c1cc(-c2ccccc2)nn1CC1CC(c2cccnc2)=NO1 (centres undefined)	1	0	3874	1.4	-10	-6	-10
43	CS/C(=C\[N+](=O)[O-])Nc1ccc(F)cc1	-4	/	3182	/	0	/	/
44	COc1ccc(NC(=O)C2CCN(C(=O)c3ccc(OC)cc3)CC2)cc1	-1	7	3011	0.8	-27	/	/
45	CS(=O)(=O)N(CC(=O)N1CCCCCC1)c1ccc(Cl)cc1	10	6	3769	1.5	-17	14	2
46	CN1C(=O)C(=NOC(=O)c2ccccc2Cl)c2ccccc21	/	8	/	8.2	/	12	4
47	CC1CCN(c2ccc(NC(=S)NC(=O)c3ccco3)cc2)CC1	2	16	3138	4.3	-28	/	/
48	Cc1cc(NC(=O)c2ccc3c(c2)OCO3)ccc1NC(=O)c1ccco1	23	5	2835	2.5	-6	13	4
49	CCCC(C)NC(=O)C1CCN(C(=O)C2CC(=O)N(c3ccc(C)cc3)C2)CC1 (centres undefined)	-7	11	5485	1.6	0	-1	5
50	COC(=O)CSc1nc2sc3c(c2c(=O)[nH]1)CCC3	2	-6	4437	2.8	-8	-9	-1
51	Cc1cc(=O)oc2cc(OCC(=O)c3ccccc3)ccc12	-6	5	4227	4.8	-37	13	3
52	COc1ccc(OC)c(C(=O)COC(=O)C2CC3CCCC(C2)C3=O)c1 (centres undefined)	-7	3	5500	-1.5	-2	/	/
53	O=S(=O)(Nc1ccccc1Cl)c1ccc2[nH]c(=S)oc2c1	6	-4	6071	0.6	10	6	2
54	CC(C)(C)c1ccc(C(=O)NNc2ncccc2-n2cccc2)cc1	-4	6	3562	0.4	-32	-3	-3
55	CN(C)S(=O)(=O)c1cccc(NC(=S)N/N=C/c2cc(Br)ccc2O)c1	8	/	3530	/	33	/	/
56	COC(=O)c1ccccc1NC(=O)Cn1c(CCC(=O)O)ccc1-c1cccs1	21	-7	10960	17	-11	7	1
57	COc1ccc(C=NNc2nncc3ccccc23)c(OC)c1	/	7	/	2.8	/	16	-1
58	COc1ccc(CCNC(=O)c2ccc(Cl)cc2Cl)cc1	1	0	8820	6.1	-21	9	15
59	Cn1c(=O)cc(OCCCC(=O)NC2CCCC2)c2ccccc21	-4	9	?	3.1	-11	-1	-5
60	Cc1cccc(C(=O)Nc2cc(Cl)ccc2-n2cncn2)c1[N+](=O)[O-]	3	1	7406	1.9	-23	10	-1

# 5 structures out of the list, ordered by SMILES length, smallest number first.
nr	SMILES	BJeLR viability	Sa ugtP lethal	Autofluor counter	RN4220 kill	PrP 5UTR inh	Mtb hypoxia rep	Mtb hypoxia rep growth
50	COC(=O)CSc1nc2sc3c(c2c(=O)[nH]1)CCC3	2	-6	4437	2.8	-8	-9	-1
47	CC1CCN(c2ccc(NC(=S)NC(=O)c3ccco3)cc2)CC1	2	16	3138	4.3	-28	/	/
54	CC(C)(C)c1ccc(C(=O)NNc2ncccc2-n2cccc2)cc1	-4	6	3562	0.4	-32	-3	-3
56	COC(=O)c1ccccc1NC(=O)Cn1c(CCC(=O)O)ccc1-c1cccs1	21	-7	10960	17	-11	7	1
55	CN(C)S(=O)(=O)c1cccc(NC(=S)N/N=C/c2cc(Br)ccc2O)c1	8	/	3530	/	33	/	/

# Continuation:
nr	SMILES	BJeLR viability	Sa ugtP lethal	Autofluor counter	RN4220 kill	PrP 5UTR inh	Mtb hypoxia rep	Mtb hypoxia rep growth
61	O=C(Cn1c(=O)n(CCCCC(=O)NC2CCCC2)c(=O)c2ccccc21)NCCC1=CCCCC1	-3	-13	3786	3.5	-15	10	11
62	CCC(CC)c1nnc(NC(=O)c2c(C)nn(Cc3ccccc3Cl)c2C)s1	1	-12	2193	-10.0	24	/	/
63	CCOCCc1nnc(NC(=O)CS(=O)(=O)c2ccc(C)cc2)s1	-1	-1	5212	5.4	-22	8	4
64	CN(CC(=O)N1CCN(Cc2ccccc2)CC1)S(=O)(=O)c1ccc(Br)cc1	2	-3	5562	-1.8	-13	-1	9
65	Cc1cc(C)cc(CC2CC(=O)N(c3ccc4c(c3)OCCO4)C2=O)c1 (centres undefined)	-13	2	6155	7.4	-24	0	5
66	O=C1/C(=C/c2ccncc2)CCc2ccccc21	-4	-2	3566	2.3	-21	-11	9
67	CCOC(=O)C1CCCN(CCc2ccccc2)C1 (centres undefined)	-4	0	4320	3.1	-23	1	-4
68	Cc1ccccc1S(=O)(=O)Cc1ccc(C(=O)N2CCN(C3CCCCC3)CC2)o1	9	-9	5906	3.2	-8	/	/
69	CC1CCCCN1c1cc(C#N)c(C#N)cc1[N+](=O)[O-] (centres undefined)	-4	12	7974	4.3	-26	0	5
70	O=C1CC(c2ccc(Cl)cc2)SC(N(c2ccccc2)c2ccccc2)=N1 (centres undefined)	-12	2	2395	-3.0	-51	9	-7
71	Cc1ccc(N2C(=O)c3cccc4c(Oc5ccccc5[N+](=O)[O-])ccc(c34)C2=O)c(C)c1	13	-12	2350	-8.6	-1	0	2
72	Cc1cc(C)nc(NC(=O)c2cc([N+](=O)[O-])cc([N+](=O)[O-])c2)n1	-1	7	2015	0.6	-17	0	36
73	O=[N+]([O-])c1ccccc1N/N=C/c1ccc2c(c1)OCO2	33	/	4696	/	-85	/	/
74	Cc1cc(C)c2c(=O)n(CC(=O)NCCCN3CCOCC3)sc2n1	5	9	5803	-1.4	-9	4	6
75	O=C(Nc1cccc(Cl)c1)OCc1cnc(Cl)s1	-3	-37	2181	0.2	-22	/	/
76	O=C(NC(=S)NCC1COc2ccccc2O1)c1ccccc1 (centres undefined)	-1	-1	3175	-3.4	-20	6	7
77	COc1ccccc1OCc1cc(C(=O)NCc2ccc(N3CCCC3=O)cc2)no1	2	-5	4293	-3.9	-9	-12	-5
78	Cc1nc(-n2[nH]c3c(c2=O)CCCC3)[nH]c(=O)c1Cc1ccccc1	8	64	3847	69	9	5	8
79	CCCCNCCOCCOc1ccc(C)cc1Br	1	-5	2415	2.4	3	5	13
80	CCOC(=O)c1[nH]c(C)c(/C(O)=C2\C(=O)C(=O)N(CCN(C)C)C2c2cccc(OC)c2OC)c1C (centres undefined)	-9	-1	18747*	3.3	-14	5	10
81	CC(C)c1ccc(NC2CCCN(C(=O)c3n[nH]c4c3CCC4)C2)cc1 (centres undefined)	12	3	5171	0.8	-16	8	8
82	c1cncc(-c2nnc(C3CCCCC3)o2)c1	1	-4	9390	-0.3	-24	/	/
83	CCOC(=O)C(C#N)=NNc1cc(Cl)ccc1OC	/	-2	/	1.0	/	5	8
84	Cc1ccc(Nc2cc(C)nc3ncnn23)cc1	-4	5	3259	1.6	-4	-3	2
